Screening results as filed in PubChem BioAssay.
2A firefly: lowers the firefly signal of an FMDV 2A StopGo reporter | HEK cells with a luciferase reporter of 2A StopGo recoding | 120,000 compounds, 0.23% hits | Potency, µM (series often up to 57.5 µM), for the others: at the top dose signal change, negative = less light; active = well fitted falling curve with a large enough effect; inconclusive = small, poorly fitted or top-dose-only effect; inactive = no such curve, though single readings can be large or run the other way; further: nearly all actives have a fitted effect of over 60% in size; overnight with compound
2A Renilla: FMDV 2A StopGo reporter, Renilla signal | 120,000 compounds, 0.32% hits | HEK cells with a luciferase reporter of 2A StopGo recoding | Potency, µM (titrated, usually from 57.5 µM), for inactives: at the highest dose signal change, negative = less light; active means well fitted falling curve with a large enough effect; inconclusive means small, poorly fitted or top-dose-only effect; inactive means no such curve, though single readings can be large or run the other way; further: nearly all actives have a fitted effect of over 55% in size; overnight with compound
Numbers without * were called inactive; ? = inconclusive; [ ] = dose if it differs, or a comment. On the % scale 0 is the no-effect control and ±100 the full control effect; potency means the concentration at half of the fitted maximal effect.

SMILES | 2A firefly | 2A Renilla
Cc1ccc2nc(SCC(=O)Nc3ccc(C#N)cc3)[nH]c2c1 | 9% | 43%[activator]
Cc1cccc(NC(=O)/C(C#N)=C/c2ccco2)c1 | 203%[activator] | 4%
O=C(CCc1ncc(-c2ccc(Cl)cc2)o1)NCc1ccc(Cl)cc1Cl | 7% | -3%
COc1ccc(-c2noc(C(C)NC(=O)c3ccccc3Cl)n2)cc1 (stereo unspecified) | 10% | -16%
CC(C)Cn1nc(C(=O)N2CCCCC2c2nc3ccccc3s2)c2ccccc2c1=O (stereo unspecified) | 24% | 21%
CCc1cccc(C)c1NC(=O)Cn1c(=O)cc(C)c2c(C)nn(-c3cccc(F)c3)c21 | -25% | -22%
COCCOc1ccc(C(C)NC(=O)Cc2cccs2)cc1OC (stereo unspecified) | 12% | 16%
CCN(CCc1ccncc1)S(=O)(=O)c1cc(N2C(=O)CCS2(=O)=O)ccc1OC | -2% | 0%
CCOC(=O)C1=CNc2cc(C)nn2C1(O)C(F)(F)F (stereo unspecified) | 12% | 10%
CCCCNC(=S)Nc1ccc(Br)c(C)c1 | 42%[activator] | 0%
CCOc1ccc(NC(=O)Cn2c(=O)c3c(ncn3CCC(C)C)n(Cc3ccccc3)c2=O)cc1 | -16% | -21%
CCC(C)(C)C1CCc2c(sc(N)c2C#N)C1 (stereo unspecified) | 45%[activator] | 16%
CCn1c(SCc2nc(N)nc(Nc3ccccc3)n2)nnc1C1CC1 | 0% | 45%[activator]
Fc1ccc(CSc2nc(NCc3ccccc3)c3ccccc3n2)cc1 | -21% | -10%
COc1cc(C2CC(=O)c3c([nH]c(C(=O)OC4CCCCC4)c3C)C2)cc(OC)c1OC (stereo unspecified) | ? | ?
COc1ccc(C(=O)OCC(=O)NC2CCC(C)CC2)cc1OC (stereo unspecified) | 6% | -8%
CSc1ccc(NC(=O)CCc2ccc(F)cc2)cc1 | 43%[activator] | 28%
Cc1ccc(N2CCN(S(=O)(=O)c3nnc(NC(=O)c4ccccc4)s3)CC2)cc1 | -2% | -2%
CCOC(=O)CC1(NC(=O)N2CCCCCC2c2cccs2)CCCCC1 (stereo unspecified) | 6% | 18%
CCN(CC)CC(=O)N1CCN(c2nc(C(C)C)c3c(c2C#N)CC(C)(C)OC3)CC1 | 2% | 2%

Retrieved by compound from above (6):
SMILES | 2A firefly | 2A Renilla
CCN(CCc1ccncc1)S(=O)(=O)c1cc(N2C(=O)CCS2(=O)=O)ccc1OC | -2% | 0%
CCn1c(SCc2nc(N)nc(Nc3ccccc3)n2)nnc1C1CC1 | 0% | 45%[activator]
CCOc1ccc(NC(=O)Cn2c(=O)c3c(ncn3CCC(C)C)n(Cc3ccccc3)c2=O)cc1 | -16% | -21%
COc1ccc(-c2noc(C(C)NC(=O)c3ccccc3Cl)n2)cc1 (stereo unspecified) | 10% | -16%
Fc1ccc(CSc2nc(NCc3ccccc3)c3ccccc3n2)cc1 | -21% | -10%
CCC(C)(C)C1CCc2c(sc(N)c2C#N)C1 (stereo unspecified) | 45%[activator] | 16%

More entries:
SMILES | 2A firefly | 2A Renilla
Oc1c(C(c2ccccc2F)N2CCOCC2)sc2nc(-c3ccco3)nn12 (stereo unspecified) | -10% | 23%
C#C[C@]1(O)CC[C@H]2[C@@H]3[C@H](C)CC4=C(CCC(=O)C4)[C@H]3CC[C@@]21C | -11%[11.5 µM] | -10%
Cc1ccc(NC(=O)CN(C)S(=O)(=O)c2ccc3[nH]c4c(c3c2)CCCC4)c(Cl)c1 | ? | ?
NC(=O)c1cccnc1NCc1cccc(C(F)(F)F)c1 | 11% | 16%
COc1ccccc1NC(=O)CN1C(=O)CC(c2ccc(C)c(C)c2)=Nc2ccccc21 | 135%[activator] | 11%
Cc1cc(C)cc(NS(=O)(=O)c2cc(-c3cnc(C)o3)ccc2C)c1 | -13% | 210%[activator]
COc1ccccc1N1CCN(C(=O)c2nc(SC)ncc2Cl)CC1 | 107%[activator] | 93%[activator]
CCc1ccc(NC(=O)C(=O)NCC(c2cccnc2)N2CCc3ccccc3C2)cc1 (stereo unspecified) | -1% | -10%
COc1cccc(/C=C/c2nc(C#N)c(NCc3ccco3)o2)c1 | 205%[activator] | 120%[activator]
O=C1CCc2cc(C(=O)NCc3ccnc(N4CCCC4)c3)ccc2N1 | -1% | -17%
Cc1cccc(C(C)C)c1NC(=O)c1ccc(Cl)cc1F | 0% | -7%[1.06 µM]
COc1ccc(CCNC/C=C/c2ccccc2)cc1 | -2% | 0%
CC(=O)Nc1cccc(NC(=O)CN2C(=O)CCSc3ccccc32)c1 | 12% | 11%
Cc1ccccc1CN1CCc2nc(Nc3ccc4c(c3)OCCO4)ncc2C1 | 157%[activator] | ?
CCOC(=O)c1c(NC(=O)C(=O)NCc2ccccc2)sc2c1CC(C)(C)OC2 | -8% | -2%
Cc1ccc(-c2nonc2NC(=O)c2ccccc2Br)cc1 | 29% | 70%[activator]
Cc1cc(C)c2c(=O)cc(C(=O)NCC(c3cccs3)N3CCCC3)oc2c1 (stereo unspecified) | -9% | 8%
COc1cc2c(c(OC)c1OC)-c1ccc(OC)c(=O)cc1[C@@H](NC(C)=O)CC2 | 15%[11.5 µM] | 52%[activator]
COc1cc(C2C3=C(CCCC3=O)OC3=C2C(=O)CCC3)ccc1OCc1cccc(F)c1 | 8% | 65%[activator]
O=C(Nc1ccccc1F)c1nc(S(=O)(=O)Cc2ccccc2F)ncc1Cl | 0% | 6%
CC1(C)Cc2cccc(OCc3ccc(C(N)=O)cc3)c2O1 | -7% | 4%
O=C(c1ccccc1)C1CCCN1C(=O)C(F)(F)F (stereo unspecified) | 6% | -2%
CC1(C)OC2OC(C(=O)Oc3ccccc3)C3OC(C)(C)OC3C2O1 (stereo unspecified) | 5% | 4%
Cc1ccc(CN(C)Cc2ccccc2C)o1 | 0% | 1%
CNc1nnc(SCc2cccc(C#N)c2)s1 | 61%[activator] | -2%
Cc1ccccc1Cn1c(SCc2ccc(C(=O)NCCc3ccccc3)cc2)nc2ccncc21 | 49%[activator] | -6%
CC(C)c1ccc(NC(=O)CSc2nc3ccccc3nc2Cc2ccccc2)cc1 | 16% | -1%
O=S(=O)(CC(CN1CCOCC1)N1CCCCC1)c1ccc2ccccc2c1 (stereo unspecified) | -3% | -11%
Cc1cc(C)cc(NC(c2cccc(Cl)c2)c2nnc(-c3ccccc3)o2)c1 (stereo unspecified) | -1% | 40%[activator]
Cn1nnnc1SCCCNCc1cccc(OCc2ccccc2)c1 | -2% | 19%
CCN1CCN(Cc2c(O)ccc3c(=O)c(Oc4ccccc4C(C)C)c(C(F)(F)F)oc23)CC1 | -19% | -18%
Cc1ccc2c(c1)cc1c(=O)n(CC(=O)NC3CCCCC3)nc(C)n12 | -1% | -6%
Cc1ccc(-n2nc3c(N4CCC(C(=O)NC(C)C)CC4)nnc(C)c3c2C)cc1 | 2% | 6%
Fc1ccc(COc2ccc3ccccc3c2CNCc2ccncc2)cc1 | ? | ?
CCOC(=O)C(=O)Nc1ccc(OCC(C)C)cc1 | 0% | 6%[1.06 µM]
O=C(Cn1c(=O)n(Cc2ccco2)c(=O)c2oc3ccccc3c21)Nc1ccc(F)cc1F | -17% | -8%
COc1ccc(CNc2oc(-c3cccc4ccccc34)nc2C#N)cc1 | 35% | 66%[activator]
CC(C)NCC(O)c1ccc(N)c(C#N)c1 (stereo unspecified) | 4%[11.5 µM] | 3%
C=CCC1(Nc2c(C)cccc2CC)CCCCC1 | -6% | 0%
CCCCCCOC(=O)c1ccc(NS(=O)(=O)c2cccc3cccnc23)cc1 | 3% | 0%
COc1cc2c(cc1OC)C(COc1ccc(F)cc1)N(C(=O)c1ccccc1F)CC2 (stereo unspecified) | -3% | 42%[activator]
Cc1ccc(C)c(N2CCN(CCCNC(=O)c3cnn(-c4cccc(Cl)c4)c3C3CCN(C(=O)OC(C)(C)C)CC3)CC2)c1 | -12% | -8%
C#CCN(Cc1ccc(F)cc1)C(=O)C1CCCN(c2ncccn2)C1 (stereo unspecified) | 4% | 4%
COc1ccc(C(=O)Nc2nnc(SCc3cc(=O)c4cccc(F)c4[nH]3)s2)cc1 | 15% | 1%
Cc1ccc(Nc2nc(-c3cnc(N4CCOCC4)nc3C)cc(=O)[nH]2)cc1 | -2% | -4%
O=C(COc1ccc(S(=O)(=O)NC2CCCCC2)cc1)NCc1ccccc1 | 10% | 219%[activator]
CCc1cccc(C)c1Nc1c(-c2ccc(F)cc2)nc2sccn12 | 33%[activator] | 1%
CCOc1ccc(C(=O)Nc2ccc(S(=O)(=O)N(Cc3ccccc3)c3ccccc3)cc2)cc1 | ? | ?
Cc1cccc(Cc2cnc[nH]2)c1C | -13% | -9%
CCC(Sc1nnc2c3ccccc3n(CC)c2n1)C(=O)Nc1ccc(NC(C)=O)cc1 (stereo unspecified) | -5% | -8%
COc1ccc2nc(N(Cc3cccnc3)C(=O)C3CCCCC3)sc2c1 | -2% | 36%[activator]
CC(CCc1ccccc1)NC(=O)C1CCCCC1 (stereo unspecified) | 0% | 29%
CC(C)c1ccc(CN(C(=O)c2cc3ccccc3oc2=O)C2CCS(=O)(=O)C2)cc1 (stereo unspecified) | -10% | -6%
Cc1cc(C)cc(NC(=O)CCc2nnc3n(C)c(=O)c4sccc4n23)c1 | -6% | 2%
CC(C)[C@H](NC(=O)OCc1ccccc1)C(=O)OCc1ccc(C#N)cc1 | 6% | 3%
Cc1ccc(C(=O)c2c(N)c(-c3nc(-c4ccc5c(c4)OCO5)cs3)c3ccccn23)cc1C | 1% | -12%
COc1cccc(-c2nc(SC(C(C)=O)C(=O)N(C)C)c3c(=O)n(C)c(=O)n(C)c3n2)c1 (stereo unspecified) | -9% | -7%
CCc1ccc(NC(=O)c2cc(=O)c3cc(C)cc(C)c3o2)cc1 | 1% | 0%
CC(C)Oc1ccc(C(=O)N2CCCCC2CCN2CCOCC2)cc1 (stereo unspecified) | -9% | -11%
CC(Sc1ccccc1Cl)C(=O)NC1CCCC1 (stereo unspecified) | 17% | 15%

4 of these compounds, set out differently:
Compound,2A firefly,2A Renilla
Cc1ccc(C(=O)c2c(N)c(-c3nc(-c4ccc5c(c4)OCO5)cs3)c3ccccn23)cc1C,1%,-12%
COc1cccc(-c2nc(SC(C(C)=O)C(=O)N(C)C)c3c(=O)n(C)c(=O)n(C)c3n2)c1 (stereo unspecified),-9%,-7%
CCc1ccc(NC(=O)c2cc(=O)c3cc(C)cc(C)c3o2)cc1,1%,0%
CC(C)Oc1ccc(C(=O)N2CCCCC2CCN2CCOCC2)cc1 (stereo unspecified),-9%,-11%

(cont.)
SMILES | 2A firefly | 2A Renilla
Cc1cc(C)cc(CN2CCC(C(=O)NCC(F)(F)F)CC2)c1 | -8% | -6%
CCOc1ccc(NC(=O)C2=NN(C3CCS(=O)(=O)C3)C(=O)CC2)cc1OCC (stereo unspecified) | -2% | 0%
Cc1cc2oc(=O)cc(COC(=O)c3n[nH]c4ccccc34)c2cc1C | 9% | 1%
Cc1ccc(Nc2nc(N)nc(N)c2S(=O)(=O)c2ccccc2)cc1 | 32%[activator] | 115%[activator]
Cc1cccc(CNC(=O)CSc2nc3ccccc3nc2C)c1 | 5% | 6%
Cc1ccc2oc(=O)c3cnn(CC(=O)N4CCN(c5cccc(Cl)c5)CC4)c3c2c1 | 7% | -2%
Cc1cc(C(=O)COc2ccccc2C#N)c(C)n1CCC(C)C | 70%[activator] | -5%
CCC(C)NC(=O)c1ccc(CNS(=O)(=O)c2ccc3c(c2)C(C)(C)C(=O)N3C)cc1 (stereo unspecified) | -6% | -11%
O=C(NC1CCc2ccccc21)c1cc(Br)ccc1Cl (stereo unspecified) | 4% | 42%[activator]
O=C(COc1ccccc1Cl)Nc1ccc(Cl)c(-c2nc3ccccc3o2)c1 | -4% | 9%
COc1cc(C#N)ccc1OCc1ccc(OC)c(OC)c1Br | 43%[activator] | 10%
CC1Sc2ccc(C(=O)NOCc3ccccc3)cc2NC1=O (stereo unspecified) | 203%[activator] | 33%[activator]
CCOC(=O)c1ccc(NC(=O)CCC2CCCC2)cc1 | 68%[activator] | 1%
CSC1=N/C(=C\c2sccc2C)C(=O)S1 | 16% | 7%
COC(=O)c1cc(S(=O)(=O)Nc2ccc(C)cc2Cl)c[nH]1 | -5% | 48%[activator]
COc1cc(C(=O)OCCO)ccc1OCc1ccc(Cl)cc1 | 150%[activator] | 11%
COc1ccccc1NC(=O)Cn1c(=O)n(-c2cccc(Cl)c2)c(=O)c2sc3ccccc3c21 | -4% | -7%
Cc1ccc(CNC(=O)CCCCCn2c(=O)c3sccc3n(CC(=O)Nc3c(C)cc(C)cc3C)c2=O)cc1 | 12% | -1%
COc1ccc(NC(=O)CCc2c(C)nc3c(-c4ccc(F)cc4)c(C)nn3c2C)c(OC)c1 | -11% | -9%
CCOc1ccc(N2CC(c3nc4ccccc4n3CCCOc3ccccc3)CC2=O)cc1 (stereo unspecified) | ? | -6%

No new results follow: two of the compounds above.
SMILES | 2A firefly | 2A Renilla
Cc1cc(C)cc(CN2CCC(C(=O)NCC(F)(F)F)CC2)c1 | -8% | -6%
CCOc1ccc(NC(=O)C2=NN(C3CCS(=O)(=O)C3)C(=O)CC2)cc1OCC (stereo unspecified) | -2% | 0%

More results
SMILES | 2A firefly | 2A Renilla
COC(CNC(=O)Cc1c(C)nc2c(-c3ccccc3)c(C)nn2c1C)OC | -6% | -10%
Cc1oc(-c2ccccc2)nc1CC(=O)N(CCC#N)Cc1ccco1 | -3% | -2%
Cc1ccc(OCC(O)Cn2c(NCC(=O)O)nc3c2c(=O)n(C)c(=O)n3C)cc1 (stereo unspecified) | -6% | -16%
O=C(/C=C/c1cccc2ccccc12)N(Cc1cccs1)C1CC1 | 159%[activator] | 249%[activator]
Cc1nc2cc(-c3cccc(F)c3)nn2c(C)c1CCC(=O)NCCc1ccccc1 | ? | -4%

A portion of the library; rates above refer to the full screens.
